Compound activity deposited in PubChem by several laboratories.
YopH inh: inhibitors of Yersinia enterocolitica YopH tyrosine phosphatase; fluorescence Ex485/Em525; inhibition, %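 (about 10 µM by stock and volumes)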; 0.16% of 140,000 active;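 active = inhibition of 50% or more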;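 note: controls were vehicle for no effect and minimum signal wells for full effect; inactives centre near -20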
Mtb betalactam: beta-lactam sensitization of Mtb H37Rv; M. tuberculosis H37Rv growth with meropenem, percent inhibition; hits of this screen are not shown here; inhibition, % at 25 µM; 0.27% of 330,000 active;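 active = about 74% or more and at least 40 points above the plate without the antibiotic, then above 30% in a dose series; inconclusive = first-round hits that could not be retested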;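 note: growth measured after seven days incubation then overnight dye step; 0% = bacteria only wells and 100% = bacteria with antibiotic; twin plates without the antibiotic show which effects depend on it; some results filed as inactive read as strong as hits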
Arbovirus inh: blocks arbovirus infection; arbovirus infection cell-based antiviral screen; inhibition, % at 10 µM; 0.37% of 200,000 active; AID 1251;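 active = inhibition from about 30%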;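 note: bluetongue infection of BSR cells; cell survival read as ATP light after 72 h; 0% = infected wells without compound and 100% = uninfected wells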
Mtb growth: M. tuberculosis H37Rv growth inhibitors, H37Rv strain (AID 1626). M. tuberculosis H37Rv growth inhibition; higher % means a stronger effect. one-dose inhibition, % at 10 µM; IC50 in µM for titrated hits. 0.95% of 220,000 active;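 active = confirmed in a dose series; inconclusive = inhibition above 80% but not taken into the dose series; inactive = below 80% or under 30% at every dose of the series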;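 note: bacteria incubated seven days before Alamar blue readout; 0% = bacteria only wells and 100% = bacteria with antibiotic wells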
RecA intein inh: Mtb RecA intein splicing inhibition. P9WHJ3. cell-free RecA intein splicing, fluorescence. inhibition, %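 (about 9 µM by stock and volumes)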. 0.75% of 290,000 active. AID 2221; in the data active = inhibition above about 30%; inconclusive = no clear call, values can overlap the other calls;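 note: 0% = vehicle wells and 100% = reference inhibitor control wells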
Target sequence (P9WHJ3 whole entry, looked up): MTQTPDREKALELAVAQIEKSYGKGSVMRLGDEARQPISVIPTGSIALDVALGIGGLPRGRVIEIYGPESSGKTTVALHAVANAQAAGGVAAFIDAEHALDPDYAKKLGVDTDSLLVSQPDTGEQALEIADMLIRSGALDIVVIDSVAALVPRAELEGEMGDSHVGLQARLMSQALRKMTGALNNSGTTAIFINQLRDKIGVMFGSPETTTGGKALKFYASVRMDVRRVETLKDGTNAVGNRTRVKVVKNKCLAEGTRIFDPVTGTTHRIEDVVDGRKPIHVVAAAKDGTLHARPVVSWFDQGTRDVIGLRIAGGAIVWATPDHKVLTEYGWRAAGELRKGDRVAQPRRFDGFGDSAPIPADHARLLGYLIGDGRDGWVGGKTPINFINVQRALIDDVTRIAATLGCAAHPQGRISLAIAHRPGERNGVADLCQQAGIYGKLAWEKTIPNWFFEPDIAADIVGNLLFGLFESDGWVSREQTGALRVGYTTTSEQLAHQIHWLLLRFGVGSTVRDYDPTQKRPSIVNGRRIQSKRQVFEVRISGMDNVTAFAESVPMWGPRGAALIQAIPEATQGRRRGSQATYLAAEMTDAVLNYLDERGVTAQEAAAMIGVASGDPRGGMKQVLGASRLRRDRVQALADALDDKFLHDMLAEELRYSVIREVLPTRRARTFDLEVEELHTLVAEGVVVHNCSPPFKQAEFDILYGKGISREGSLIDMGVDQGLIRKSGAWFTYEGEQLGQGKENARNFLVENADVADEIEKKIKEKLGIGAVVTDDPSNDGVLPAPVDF
Arbovirus inh repeat: further read-out of Arbovirus inh, marked with its call; inhibition, %; measured here: 10K subset replicate screen; many hits read low in the repeat;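 first of two repeat runs on a subset; 0% = infected and 100% = uninfected wells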
Starred values were filed as active, the others as inactive; ? = inconclusive; . = not tested or not shown. A portion of the library; count on the stated rates, not on these rows.

SMILES	YopH inh	Mtb betalactam	Arbovirus inh	Mtb growth	RecA intein inh	others
CCNc1nc2c(c(=O)n(Cc3ccccc3)c(=O)n2C)n1Cc1ccccc1	11	-6	-8	6%	6.9
COc1ccccc1N(CC(=O)Nc1ccc(S(=O)(=O)N2CCCCC2)cc1)S(C)(=O)=O	-8	-2	1	-5%	-1.4
Cc1c(NC(=O)Nc2ccccc2Cl)c(=O)n(-c2ccccc2)n1C	.	4	1	7%	-0.8
Cc1ccc(NC(=O)COC(=O)c2cc(Cl)ccc2[N+](=O)[O-])cc1	-24	0	-1	-2%	0.3
Cc1ccc(OCC2Cn3c(nc4c3c(=O)n(C)c(=O)n4C)O2)cc1 (stereo unspecified)	12	-2	4	2%	-7.6
Cc1occc1-c1nnc(SCC(=O)c2c(N)n(Cc3ccccc3)c(=O)n(C)c2=O)n1C	3	6	6	5%	-1.7
CCOC(=O)N/N=C1\CCS(=O)(=O)c2ccc(Cl)cc21	.	-1	.	-8%	-2.7
Cc1ccc(N2C(=O)C(CC(=O)Nc3cccc(F)c3)N(C3CC3)C2=O)cc1 (stereo unspecified)	.	-5	14	-1%	-1.3
O=C(NC1CCSc2ccccc21)c1ccccc1Br (stereo unspecified)	.	98	.	.	-1.2
O=C(/C=C/c1ccc(F)cc1)Nc1ccc2[nH]c(=O)[nH]c2c1	.	3	.	-2%	0.2
O=C(O)CC1S/C(=N/N=C/c2ccc([N+](=O)[O-])cc2)N(c2ccc(O)cc2)C1=O (stereo unspecified)	.	-3	-2	-2%	-0.1
CC1(C)CC(=O)C2=C(C1)OC(c1ccc(O)cc1)C(C#N)=C2N (stereo unspecified)	-21	0	10	3%	-19
COc1ccc([C@@H]2[C@@H]3C(=O)N(C(C)(C)C)C(=O)[C@@H]3[C@]3(Cc4ccccc4)C(=O)N(c4ccc(C)cc4)C(=O)N23)cc1	.	41	.	.	-1.4
CNC(=O)c1snnc1-c1ccccc1	-12	2	0	1%	1.9
O=c1cnnc(N/N=C/C2CC=CCC2)[nH]1 (stereo unspecified)	.	8	5	1%	-9.6
O=C(Cn1c(=O)oc2ccccc21)N(Cc1ccccc1)C1CCS(=O)(=O)C1 (stereo unspecified)	-19	-3	5	-3%	-1.6
COC(=O)c1ccccc1NC(=O)c1cccnc1	.	-7	.	.	-0.1
COc1ccnc(Oc2ccc(Cl)cc2)c1C#N	.	-6	15	1%	-1.2
Cc1nc2ccccc2c(=O)n1-c1ccc(Br)cn1	.	-8	.	0%	-2.0
COc1cc(C(=O)NCc2nnc(SCC(=O)Nc3nccs3)o2)cc(OC)c1OC	.	4	18	4%	-0.1
Cc1ccc(S(=O)(=O)Oc2ccc(/C=C3\N=C(c4cccc(C)c4)OC3=O)cc2)cc1	-54	22	-3	.	-2.7
O=Cc1ccc(N2CCCC2)o1	.	2	2	46%	.
CCCCNC(=O)COC(=O)c1cc2c(C)nn(-c3ccccc3)c2s1	-27	-11	1	4%	1.7
c1ccc(-c2ccc3c(c2)NC(C2Nc4cc(-c5ccccc5)ccc4O2)O3)cc1 (stereo unspecified)	.	66	.	-1%	-6.8
Oc1ccc(O)c(/C(=N/Nc2ccccc2)c2ccccc2)c1	.	15	.	.	1.5
Cn1c(=O)c2sccc2n2c(CCCC(=O)Nc3ccc(F)cc3F)nnc12	.	-4	.	.	1.9
O=C(c1cc(-c2cccs2)on1)N1CCN(C(c2ccccc2)c2ccccc2)CC1	-35	-5	13	-12%	10
Cc1nc(C)c(C(=O)N/N=C/c2cn(C)c3ccccc23)s1	-16	-2	-12	-1%	-0.9
COc1ccc(C2/C(=C(/O)c3ccccc3)C(=O)C(=O)N2CC(C)O)c(OC)c1 (stereo unspecified)	-28	?	4	-3%	0.1
CCn1nc(C)cc1Nc1ccccc1	-24	-14	2	-1%	6.5
O=S(=O)(NCc1ccccc1)c1cccc2nsnc12	.	2	.	5%	-3.3
CC(C)NC(=O)CN1CCC(c2ccccc2)C(O)C1 (stereo unspecified)	.	-4	9	2%	.
Cc1ccc(CNC(=O)CN2C(=O)CSc3ccc(S(=O)(=O)N4CCCCC4)cc32)cc1	.	3	.	.	4.2
COc1cc(CN/C(C)=C(\C#N)C(N)=O)cc(OC)c1OC	-46	-2	1	2%	1.8
Cc1ccc(Cl)cc1N1CCN(C(=O)Cc2c(C(=O)O)[nH]c3ccccc23)CC1	-8	-1	24	-3%	4.3
CCOc1ncc(S(=O)(=O)N2CCN(CC)CC2)cc1C(=O)O	.	-14	.	.	-2.4
CC(=O)Nc1ccc(NC(=O)COC(=O)CCc2nc3ccccc3s2)cc1	.	-2	16	-3%	-1.2
O=C(Nc1ccc(N2CCOCC2)cc1N1CCOCC1)c1ncoc1-c1cccc(F)c1	.	7	.	.	-1.1
Cc1ccc(S(=O)(=O)NC(=NCC(=O)O)c2ccc(F)cc2)cc1	-30	?	-1	-5%	-0.2
O=C(NCc1ccc(N2CCCC2=O)cc1)c1cc(COc2c(F)cccc2F)on1	.	-3	.	.	-0.1
Cc1nnc(Sc2nc3ccccc3o2)c2ccccc12	-8	18	2	-13%	50*
CC(=O)C1C(c2cccc(F)c2)c2c(n[nH]c2C)CC1(C)O (stereo unspecified)	.	-9	.	-2%	2.4
Cc1[nH]c2ccccc2c(=O)c1CN(C)Cc1ccccc1	-33	-5	2	9%	-0.5
CC(=O)SCC[N+](C)(C)C	.	-8	.	0%	2.5
Cc1ccc(-n2ncc3c(NCC4CCCO4)ncnc32)c(C)c1 (stereo unspecified)	-26	0	0	-3%	.
CC(=O)Nc1ccc(S(=O)(=O)NCc2ccc3[nH]c(C)cc3c2)cc1	-22	0	8	11%	-1.1
NC(=O)N/N=C/c1ccc2cccc(OCc3ccccc3)c2n1	.	57	.	-3%	-1.2
O=C(N/C(=C/C=C/c1ccccc1)C(=O)N1CCOCC1)c1ccccc1Br	.	-1	3	-7%	0.6

Filtered by structure, those above with an aryl methoxy group
SMILES	YopH inh	Mtb betalactam	Arbovirus inh	Mtb growth	RecA intein inh	others
COc1ccccc1N(CC(=O)Nc1ccc(S(=O)(=O)N2CCCCC2)cc1)S(C)(=O)=O	-8	-2	1	-5%	-1.4
COc1ccc([C@@H]2[C@@H]3C(=O)N(C(C)(C)C)C(=O)[C@@H]3[C@]3(Cc4ccccc4)C(=O)N(c4ccc(C)cc4)C(=O)N23)cc1	.	41	.	.	-1.4
COc1ccnc(Oc2ccc(Cl)cc2)c1C#N	.	-6	15	1%	-1.2
COc1cc(C(=O)NCc2nnc(SCC(=O)Nc3nccs3)o2)cc(OC)c1OC	.	4	18	4%	-0.1
COc1ccc(C2/C(=C(/O)c3ccccc3)C(=O)C(=O)N2CC(C)O)c(OC)c1 (stereo unspecified)	-28	?	4	-3%	0.1
COc1cc(CN/C(C)=C(\C#N)C(N)=O)cc(OC)c1OC	-46	-2	1	2%	1.8

Following part.
SMILES	YopH inh	Mtb betalactam	Arbovirus inh	Mtb growth	RecA intein inh	others
Cc1ccc(C)c(OCC(=O)N2CCN(C(=O)c3ccco3)CC2)c1	-10	6	-16	2%	1.7
C/C(=N\NS(=O)(=O)c1ccc(C)c([N+](=O)[O-])c1)c1ccc2c(c1)OCO2	.	4	-1	-2%	-1.6
CC(CCc1ccccc1)OS(N)(=O)=O (stereo unspecified)	.	-3	.	.	-1.9
COc1cccc(N2CC(C(=O)Nc3nnc(SCCC4OCCO4)s3)CC2=O)c1 (stereo unspecified)	.	-4	.	.	-0.8
NC(=S)N/N=C/c1cccc(O)c1O	.	63	-1	3%	-34
O=C(CCC(=O)c1cccs1)Nc1nc2ccccc2s1	.	0	.	.	0.9
C[C@@H]1NC(=O)[C@H](CCC(N)=O)NC(=O)c2cc([N+](=O)[O-])cc(I)c2NCC[C@@H](C(N)=O)NC1=O	-23	-4	0	-3%	.
Cc1cccc(C)c1NC(=O)CCCn1nc(C)c2c(C)n(-c3ccccc3)nc2c1=O	.	-8	.	.	-3.3
COc1cc2c(cc1NC(=O)CSc1nnc(COc3ccc(Cl)cc3)n1C)oc1ccccc12	-2	.	5	36%	-1.2
COC(=O)c1cc(Br)c(=O)n(-c2ccccc2F)c1	16	1	14	-5%	-0.5
Brc1ccc(Nc2c3c(nc4ncnn24)CCC3)cc1	-28	-1	-10	5%	3.3
CC1CCN(C(=O)CSc2nc3c(c(=O)n(C)c(=O)n3C)n2C)CC1	.	1	.	.	0.7
CC(C)Oc1ccc(C(=O)CCN2CCOCC2)cc1	.	66	.	.	3.1
CCCCN(C(=O)c1cc(S(=O)(=O)N2CCCCCC2)ccc1OC)c1ccccc1	.	0	.	.	8.1
O=C(C1CCCC1)N1CCN(S(=O)(=O)c2cccc(Cl)c2Cl)CC1	.	6	.	.	-1.2
Cc1ccc(NC(=O)COC(=O)Cc2c(F)cccc2Cl)cc1S(=O)(=O)N1CCOCC1	.	-13	.	.	6.6
CCCCNc1ncnc2c1cnn2-c1ccc(C)cc1C	-22	6	-3	10%	2.7	Arbovirus inh repeat=-5
Cc1ccc(C(=O)Oc2ccc(Cl)c3cccnc23)cc1[N+](=O)[O-]	-26	100	12	.	0.0
CC1(C)CCC(=O)N(c2ccc(OC(F)(F)F)cc2)C1=O	.	5	.	.	-1.7
COc1ccc(NC(=O)COC(=O)Cn2cnc3ccccc3c2=O)cc1OC	.	8	.	-1%	-2.1
O=C(c1ccccc1)c1ccc(Oc2ccc(C(=O)O)c(C(=O)O)c2)cc1	.	-3	.	.	-1.3
O=C(CN1C(=O)/C(=C/c2ccccc2F)Oc2ccccc21)N1CCN(c2ccccn2)CC1	-11	10	-10	1%	-11
COc1ccc(/C(N)=N/OC(=O)Oc2ccccc2)cc1OC	-15	0	-5	1%	-3.5
COc1cc(NC(=O)CC(C)S(=O)(=O)c2ccc3c(c2)NC(=O)CO3)cc(OC)c1OC (stereo unspecified)	.	1	.	.	1.0

Structural class: those above containing bromine.
SMILES	YopH inh	Mtb betalactam	Arbovirus inh	Mtb growth	RecA intein inh	others
O=C(NC1CCSc2ccccc21)c1ccccc1Br (stereo unspecified)	.	98	.	.	-1.2
Cc1nc2ccccc2c(=O)n1-c1ccc(Br)cn1	.	-8	.	0%	-2.0
O=C(N/C(=C/C=C/c1ccccc1)C(=O)N1CCOCC1)c1ccccc1Br	.	-1	3	-7%	0.6
COC(=O)c1cc(Br)c(=O)n(-c2ccccc2F)c1	16	1	14	-5%	-0.5
Brc1ccc(Nc2c3c(nc4ncnn24)CCC3)cc1	-28	-1	-10	5%	3.3

(more compounds)
SMILES	YopH inh	Mtb betalactam	Arbovirus inh	Mtb growth	RecA intein inh	others
O=C(Nc1ccccc1)c1ccccc1N=Cc1cccc(O)c1	.	-12	3	1%	-8.8
Cc1nn(C)c(NC(=O)c2ccccc2Cl)c1Cl	.	-1	.	.	1.4
O=C(Nc1ccncc1)c1cncc(Br)c1	5	2	5	5%	-1.7
Fc1ccc(CSc2nc3ncc(Br)cc3[nH]2)cc1	-18	6	-4	-8%	0.7
COc1ccc(-c2nc(CSCC(=O)N3CCC4(CC3)OCCO4)c(C)o2)cc1OC	2	?	-4	0%	0.2
COc1ccc(Cc2c(O)nc(SCC(=O)NC(C)(C)C)[nH]c2=O)cc1	.	-1	6	-7%	-3.4
CN(CCOc1ccccc1)C(=O)c1cc([N+](=O)[O-])ccc1N1CCOCC1	.	-8	.	.	-0.4
O=C(O)CC1NC(=O)N(c2ccc(Cl)cc2)C1=O (stereo unspecified)	-23	-12	-1	4%	3.2
O=C(Nc1ccc(O)c(-c2nc3ccccc3o2)c1)C1(c2ccc([N+](=O)[O-])cc2)CCCC1	-32	6	-5	-1%	3.4
Cc1nc2ccccn2c1C(=O)CSc1ccccc1Cl	17	0	2	9%	2.9
CC1CN(C(=O)COC(=O)CSc2ccc(C(N)=O)cc2[N+](=O)[O-])CC(C)O1 (stereo unspecified)	.	-14	.	.	-2.0
O=C(NN1C(=O)/C(=C\c2ccc(O)c([N+](=O)[O-])c2)SC1=S)c1ccccc1Cl	.	58	.	-2%	10
CCCC(=O)Oc1ccc(-c2nccc(C(OC)OC)n2)cc1	.	2	5	-1%	-1.9
C/C(=N/NC(=O)c1ccc2c(c1)OCO2)c1ccc(NC(=O)C(F)(F)F)cc1	-12	5	-7	0%	-0.4
O=C(O)C1CCCCC1C(=O)NCCc1ccc(Cl)cc1 (stereo unspecified)	-31	5	9	-12%	9.5
CCN(c1ccc(OC)cc1)S(=O)(=O)c1nnc(NC(=O)CC(C)C)s1	.	-2	.	.	0.9
